# Assay outcomes deposited in PubChem BioAssay by ICCB-Longwood Screening Facility, Harvard Medical School.
# GIV Gai3 FP: blocks GIV peptide binding to rat Galpha-i3; Galpha-i3/FITC-GIV peptide fluorescence polarization, 90 min; active compounds read low; scaled: aluminum fluoride 0%, vehicle 100%; percent of control (FP), % (no concentration beside the values); AID 1224905; 210,000 tested, 0.42% active;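 active = replicate mean at 85% of control or lower, very high polarization wells dropped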;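 also: wells of about 15 µL received 100 nL stock; the first replicate is given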
# Target sequence (P08753 whole entry, looked up): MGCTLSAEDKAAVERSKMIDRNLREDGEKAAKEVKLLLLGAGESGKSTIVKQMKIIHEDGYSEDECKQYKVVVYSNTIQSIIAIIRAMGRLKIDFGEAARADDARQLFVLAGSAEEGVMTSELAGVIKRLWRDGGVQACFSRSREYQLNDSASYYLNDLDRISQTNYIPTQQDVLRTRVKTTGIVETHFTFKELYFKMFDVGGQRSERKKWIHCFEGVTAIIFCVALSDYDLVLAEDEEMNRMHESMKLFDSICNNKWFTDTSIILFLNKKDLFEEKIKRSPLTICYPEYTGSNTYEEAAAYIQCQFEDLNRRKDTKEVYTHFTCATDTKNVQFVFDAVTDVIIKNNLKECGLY
# HCMV UL50-53 inh: disrupts HCMV UL50-UL53 complex binding. HTRF UL50-UL53 interaction, normalized percent inhibition. inhibition, % (test concentration not listed). 190,000 tested, 0.15% active;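 active = both replicates at 50% or more, plus weaker picks with an unusually low signal ratio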;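 also: stock transfer was 100 nL into about 20 µL; 0% = negative control wells and 100% = wells with untagged competitor protein; inactives centre near -12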
# Sa growth 42C: blocks Staphylococcus aureus growth | relative growth, % (no concentration beside the values) | 170,000 tested, 0.53% active | S. aureus RN4220 growth, OD600, 20 h, 42 °C; active compounds read low;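 active = growth at 42 °C up to 50% and 20 or more points under that at 30 °C, or under 10% at both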;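 also: 300 nL library stock went into each well; scaled to the means of positive and negative controls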
# Sa growth 42C second temp: second read-out of Sa growth 42C, no call of its own (marks repeat the call); relative growth, %; measured here: growth at 30 °C;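 optical density after 20 h as mean of two plates; 100% = untreated growth and lower means inhibition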
# An asterisk follows results filed as active; nt = no result given. Random draw from the library (roughly 0.79% active in at least one column).
SMILES,GIV Gai3 FP,HCMV UL50-53 inh,Sa growth 42C,Sa growth 42C second temp
O=C(NC1CCCCC1)c1cc(Nc2ccccc2)nc2ccccc12,103,nt,124,95
C=CCSc1ncc2c(=S)[nH]c(=S)[nH]c2n1,97,-130,0.0*,-0.1*
Cc1ccc(-c2c(N(C)C3CCCCC3)c(=O)c2=O)cc1,106,-59,nt,nt
COCc1nnc(NC(=O)c2ccc(S(=O)(=O)N(C)C3CCCCC3)cc2)o1,103,-33,8.5*,7.8*
CC(C)CCN1CSC2=C(C#N)C(c3ccc(F)cc3)CC(=O)N2C1 (stereo unspecified),104,-52,82,74
Cc1nn(CC(=O)N2CCC(C)CC2)c(=O)c2cc3occc3n12,99,-18,95,91
O=c1c2nnn(-c3cccc(Cl)c3)c2ncn1C/C=C/c1ccccc1,99,3,105,98
CON(S(=O)(=O)c1ccccc1)S(=O)(=O)c1ccccc1,106,0,107,101
Cc1ccc(CN(C(=O)c2ccc(OCC(C)C)cc2)c2ccccn2)o1,111,-3,86,79
CN(CC(=O)NC1CCSc2ccccc21)S(=O)(=O)c1ccc(F)cc1 (stereo unspecified),nt,-16,79,99
CN(c1ncnc2c1c(-c1ccccc1)cn2-c1ccc(F)cc1)C1CCCCC1,107,nt,100,99
Cc1cc(C)c(NC(=O)c2ccc3nc(C(C)C)oc3c2)c(C)c1,107,nt,106,90
COc1ccccc1C1=NOC(C(=O)N2CCCC2)C1 (stereo unspecified),98,-42,105,78
CN1CCN(C(=O)c2ccc(/C=C3/SC(=S)N(C)C3=O)cc2)CC1,106,-74,98,84
Cc1cc(NC(=S)NCc2ccccc2)n[nH]1,nt,-30,75,83
CCC(Sc1nnc(-c2ccccc2NC(C)=O)c(=O)[nH]1)C(=O)Nc1c(C)cc(C)cc1C (stereo unspecified),99,-30,nt,nt
N#CCCN(Cc1cccnc1)C(=S)NC1CC2C=CC1C2 (stereo unspecified),102,-14,108,87
CC1CCCN(c2ccc3nc4ccccc4c(=O)n3n2)C1 (stereo unspecified),104,nt,97,74
COc1ccc(NC(=O)CN(C)S(=O)(=O)c2ccc3c(c2)c(=O)n(C)c(=O)n3C)cc1,99,6,103,96
CCn1c(CNC(=O)C23CC4CC(CC(C4)C2)C3)nnc1SCC(=O)Nc1ccccc1,104,-16,108,90
CC1Cc2ccccc2N1CC(=O)NCCCc1ccccc1 (stereo unspecified),nt,-9,120,89
O=C(NCc1ccccc1)C1CCCN(c2ncccn2)C1 (stereo unspecified),106,7,113,108
O=C(O)COc1ccc(/C=N/O)cc1Br,106,-13,106,96
CC(=O)N1CCN(C(=O)/C(C#N)=C/c2ccccc2)CC1,nt,-17,85,85
COc1ccc(S(=O)(=O)Nc2ccc(N3CCCS3(=O)=O)cc2)cc1,100,-34,nt,nt
Cc1cc(N)nc(SCCCN(C)C)n1,109,1,90,99
COCn1c(-c2ccccc2)nc2ccccc21,97,nt,103,79
O=C(Nc1ccc(Cl)cc1)N1CC=C(c2c[nH]c3ccccc23)CC1,125,5,nt,nt
COc1ccc(OC)c(-n2cc(-c3ccccc3)nc2SC)c1,104,nt,102,86
Cc1ccc2nc3c(cc2c1)CCN3S(=O)(=O)c1ccccc1,109,-21,nt,nt
CN(CC(=O)Nc1ccc2c(c1)OCO2)Cc1ccccc1,101,-12,109,105
Cc1nn(CCCC(=O)NCc2ccc(OC(C)C)cc2)c(=O)c2c1sc1ccccc12,102,-13,95,85
COc1cc2c(cc1NC(=O)c1ccccc1)oc1ccccc12,97,nt,95,82
CC(C)NC(=O)Cn1ccc2ccc(C#N)cc21,108,-12,103,79
COCCn1c(C)cc(C(=O)Cn2cnc3c(cnn3C)c2=O)c1C,nt,-21,88,91
Cc1coc2cc3oc(=O)c(CC(=O)N4CCCCC4)c(C)c3cc12,102,-34,111,86
CC(C)(C)OC(=O)N1CCN(c2ccc(NC(=O)Cn3nnc(-c4ccccc4)n3)cc2)CC1,101,-8,95,88
CCCn1c(=O)c(C(N)=O)cn(C2CC2)c1=O,109,-27,98,86
O=C(NCc1ccc(Cl)cc1)C1CCN(S(=O)(=O)c2ccc(F)cc2)CC1,106,-23,109,92
N#Cc1ccccc1NC(=O)Nc1cccs1,106,nt,97,96
CCOCCCn1c(=N)c(C(=O)NCc2cccnc2)cc2c(=O)n3cc(C)ccc3nc21,102,-82,106,80
C=CCN(c1nc2nc(C)cc(C)n2n1)S(=O)(=O)c1ccccc1,103,-16,nt,nt
O=C(O)/C=C/C(=O)Nc1cccc2c1CCCC2,105,-7,111,109
COc1ccc(S(=O)(=O)N(CCO)C2CCCCC2)cc1,nt,-7,111,96
Cn1nc(-c2ccccc2F)c2cc(C(=O)NCCc3ccc(Cl)cc3)sc21,104,-27,98,80
Cc1cccc(CC(=O)NCc2ccc3[nH]c4c(c3c2)CCCC4)c1,102,nt,118,88
CCOCc1cnc(C)nc1NCC(=O)c1c(C)n(C)c2ccc(OC)cc12,102,-6,82,73
O=C(CSc1nc2c([nH]c3ccccc32)c(=O)n1-c1ccc(F)cc1)NCC1CCCO1 (stereo unspecified),99,nt,102,87
N#Cc1c(-c2ccco2)cc(-c2ccccc2)nc1N,112,-39,87,72
Cc1ccc(-c2cc(C(=O)NCc3cnn(C)c3C)c3ccccc3n2)cc1C,106,-38,93,88
COc1ccc(Br)c(C(=O)Nc2cc3c(cc2N2CCCCC2)n(C)c(=O)c(=O)n3C)c1,103,-11,99,81
CCOC(=O)C1=C(CSc2nnc(SCC)s2)NC(=O)NC1CC (stereo unspecified),nt,-9,79,92
CCn1c(CN2CCc3sccc3C2c2cccs2)nc2cc(S(=O)(=O)N(C)C)ccc21 (stereo unspecified),nt,-2,79,96
CC1=NN(c2ccc(Cl)cc2)C(=O)C1,98,-23,46,12
Cc1nn(-c2ccccc2)c(CSCC(=O)Nc2ccc3c(c2)OCO3)c1C#N,nt,-14,100,90
O=C(Nc1ccc2c(c1)OCO2)C1Sc2nc(-c3ccccc3)cn2N=C1c1ccccc1 (stereo unspecified),nt,-20,53,92
CC1(C)CC(=O)C2=C(C1)OC1=C(C(=O)CC(C)(C)C1)C2c1ccc2c(c1)OCO2,101,-14,112,99
O=S(=O)(Nc1ccc(-c2ccc(N3CCCCC3)nn2)cc1)c1cc(F)ccc1F,102,1,nt,nt
O=C1CC(c2nc3ccccc3n2CC(O)COc2ccccc2Cl)CN1c1ccc(Cl)cc1 (stereo unspecified),106,1,nt,nt
Nc1nc(SCc2ccccc2Cl)n[nH]1,104,5,97,83
# The listing continues.
SMILES,GIV Gai3 FP,HCMV UL50-53 inh,Sa growth 42C,Sa growth 42C second temp
CCCn1c(N)cc(=O)n(C)c1=O,nt,-9,116,90
O=c1[nH]c(O)c(C=NCC2CCCCC2)c(=O)[nH]1,nt,0,95,87
CC(=O)Oc1cccc(-c2nc(C#N)c(N)o2)c1,nt,-7,43,23
COc1ccc2c(c1)c1nc(SC)n(C)c(=O)c1n2C,107,1,97,98
COc1cc(C(=O)NC(Cc2ccccc2)c2nc3ccccc3[nH]2)cc(OC)c1OC (stereo unspecified),98,nt,99,84
COc1ccc(C(N)CC(=O)O)cc1 (stereo unspecified),nt,6,82,96
Cc1noc(C)c1S(=O)(=O)NCc1ccc2c(c1)CCO2,104,5,104,100
Cc1cccc(-c2nc(CSCC(=O)N3CCC(Cc4ccccc4)CC3)c(C)o2)c1,101,-28,nt,nt
C/C(C=Nc1c(C)n(C)n(-c2ccccc2)c1=O)=C/c1ccccc1,nt,-12,123,78
O=S(=O)(NCC(Nc1ccccc1)c1ccccc1)c1ccccc1 (stereo unspecified),110,nt,127,64
O=C(CN1C(=O)CCc2cc(S(=O)(=O)N3CCCCC3)ccc21)NCc1ccc(Cl)cc1,95,nt,104,90
CCSc1nnc2c(n1)OC(c1ccc(OCC(=O)O)cc1)Nc1ccccc1-2 (stereo unspecified),107,nt,122,100
Cc1cc(Cl)c(S(=O)(=O)N(C)CC(=O)O)cc1OCC(N)=O,111,1,90,98
CCc1nn(CC(=O)NCC(C)c2ccccc2)c(=O)c2cc3occc3n12 (stereo unspecified),107,2,108,90
O=c1cc(Cl)nc2ccc(Cl)cn12,nt,-71,109,86
CCN(CCCNC(=O)c1cc2cc3cc(OC)ccc3nc2s1)c1ccccc1,109,-12,115,86
COc1cc(NC(=O)c2cc(-c3cccc(OC)c3)n[nH]2)cc(OC)c1,107,nt,100,92
CC1CC(=O)N(CC(=O)NCc2ccc3c(c2)OCO3)c2ccccc2S1 (stereo unspecified),101,-23,109,91
COc1ccc(/C=C2\SC(=S)N(CC(=O)O)C2=O)cc1Oc1ccc([N+](=O)[O-])cc1[N+](=O)[O-],106,-78,nt,nt
COc1cc(CNC(=O)c2ccc3cnn(Cc4ccc(Cl)cc4)c3c2)cc(OC)c1,105,-30,nt,nt
CCOC(=O)c1ccc(Nc2nc3nonc3nc2NOC(C)=O)cc1,107,-60,nt,nt
CCOc1ccc(-c2c(C#N)c(N)nc(SCC(=O)c3cc4ccc(O)cc4oc3=O)c2C#N)cc1,109,17,nt,nt
NS(=O)(=O)c1ccccc1NC(=O)NCc1ccc(F)cc1,107,-11,90,99
CCCN(CCC)C(=O)c1cc2c(=O)n3ccccc3nc2n1C,101,-49,nt,nt

# In the list so far, these contain a halogen:
SMILES,GIV Gai3 FP,HCMV UL50-53 inh,Sa growth 42C,Sa growth 42C second temp
CC(C)CCN1CSC2=C(C#N)C(c3ccc(F)cc3)CC(=O)N2C1 (stereo unspecified),104,-52,82,74
O=c1c2nnn(-c3cccc(Cl)c3)c2ncn1C/C=C/c1ccccc1,99,3,105,98
CN(CC(=O)NC1CCSc2ccccc21)S(=O)(=O)c1ccc(F)cc1 (stereo unspecified),nt,-16,79,99
CN(c1ncnc2c1c(-c1ccccc1)cn2-c1ccc(F)cc1)C1CCCCC1,107,nt,100,99
O=C(O)COc1ccc(/C=N/O)cc1Br,106,-13,106,96
O=C(Nc1ccc(Cl)cc1)N1CC=C(c2c[nH]c3ccccc23)CC1,125,5,nt,nt
O=C(NCc1ccc(Cl)cc1)C1CCN(S(=O)(=O)c2ccc(F)cc2)CC1,106,-23,109,92
Cn1nc(-c2ccccc2F)c2cc(C(=O)NCCc3ccc(Cl)cc3)sc21,104,-27,98,80
O=C(CSc1nc2c([nH]c3ccccc32)c(=O)n1-c1ccc(F)cc1)NCC1CCCO1 (stereo unspecified),99,nt,102,87
COc1ccc(Br)c(C(=O)Nc2cc3c(cc2N2CCCCC2)n(C)c(=O)c(=O)n3C)c1,103,-11,99,81
CC1=NN(c2ccc(Cl)cc2)C(=O)C1,98,-23,46,12
O=S(=O)(Nc1ccc(-c2ccc(N3CCCCC3)nn2)cc1)c1cc(F)ccc1F,102,1,nt,nt
O=C1CC(c2nc3ccccc3n2CC(O)COc2ccccc2Cl)CN1c1ccc(Cl)cc1 (stereo unspecified),106,1,nt,nt
Nc1nc(SCc2ccccc2Cl)n[nH]1,104,5,97,83
O=C(CN1C(=O)CCc2cc(S(=O)(=O)N3CCCCC3)ccc21)NCc1ccc(Cl)cc1,95,nt,104,90
Cc1cc(Cl)c(S(=O)(=O)N(C)CC(=O)O)cc1OCC(N)=O,111,1,90,98
O=c1cc(Cl)nc2ccc(Cl)cn12,nt,-71,109,86
COc1cc(CNC(=O)c2ccc3cnn(Cc4ccc(Cl)cc4)c3c2)cc(OC)c1,105,-30,nt,nt
NS(=O)(=O)c1ccccc1NC(=O)NCc1ccc(F)cc1,107,-11,90,99
